Source: PubChem BioAssay (Broad Institute)
Ecoli rRNA inh – inhibits bacterial ribosomal RNA function over humanized ribosomes; GFP signal change (wild-type ribosome), % (test concentration not listed); E. coli WT GFP vs humanized-ribosome RFP mutants, fluorescence, 24 h; stronger effect = lower value; DMSO median 0, no signal -100; 350,000 compounds, 1.6% hits;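 active = significant combined selectivity score with lowered wild-type GFP, culture density cut under 30%, mutant RFP and density less affected; inactive = any of these conditions unmet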; note: one replicate is shown; some compounds called inactive have numbers as strong as hits
AF4-AF9 inh – inhibitors of human MLL-AF4/AF9 interaction; P42568; AlphaScreen, biotin-AF4 peptide binding to FLAG-AF9; inhibition, % at 10 µM; 350,000 compounds, 0.47% hits;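 active = every replicate reaching a set inhibition limit, whatever the replicate mean, cut at about 25% in these data; inconclusive = mean inhibition reaches that limit but some replicates miss it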;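 note: 0% = plate neutral control median and 100% = total signal loss; the record names both 10 and 1 µM as test concentration; the first replicate is given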
Target sequence (P42568 whole entry, looked up): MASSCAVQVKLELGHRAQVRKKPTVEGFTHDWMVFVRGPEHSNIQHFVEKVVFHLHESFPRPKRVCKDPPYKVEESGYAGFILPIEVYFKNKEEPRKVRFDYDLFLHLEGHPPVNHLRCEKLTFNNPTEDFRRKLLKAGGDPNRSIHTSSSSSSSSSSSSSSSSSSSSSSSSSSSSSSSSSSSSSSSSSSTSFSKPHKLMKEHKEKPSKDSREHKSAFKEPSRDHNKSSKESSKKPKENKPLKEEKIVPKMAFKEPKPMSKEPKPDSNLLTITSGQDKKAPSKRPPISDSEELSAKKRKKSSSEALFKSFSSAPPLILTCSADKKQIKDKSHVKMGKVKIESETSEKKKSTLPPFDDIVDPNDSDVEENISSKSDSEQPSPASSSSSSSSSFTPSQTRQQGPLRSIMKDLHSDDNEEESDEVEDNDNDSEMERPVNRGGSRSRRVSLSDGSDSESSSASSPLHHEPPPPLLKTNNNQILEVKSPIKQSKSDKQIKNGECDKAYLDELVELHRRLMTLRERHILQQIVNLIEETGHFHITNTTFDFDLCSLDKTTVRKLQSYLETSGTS
T cruzi inh – T. cruzi replication inhibition; 300,000 compounds, 1.4% hits; inhibition, % (test concentration not listed); T. cruzi beta-gal in NIH3T3, luminescence, 90 h;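 active = mean inhibition across valid replicates above about 55%, limit read from the data; inconclusive = mean below that limit but half or more replicates reach it; inactive = mean below it, under half of replicates reach it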;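 note: signal also drops with host cell toxicity which is not excluded here; 0% = plate median of DMSO wells and 100% = zero luminescence signal; higher percent means less beta-gal luminescence so fewer parasites; stock transfer was 50 nL into about 50 µL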
FGF22 binding – FGF22 (human) thermal shift binding; 340,000 compounds, 1.5% hits; recombinant FGF22 thermal shift, SYPRO orange fluorescence; percent of sucrose octasulfate shift, DMSO zero; calls only at 9.99 µM; Q9HCT0;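 active = melting point raised past a set limit in the mean and every replicate; inconclusive = no clear call; three in four hits are not shown here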
Target sequence (Q9HCT0 whole entry, looked up): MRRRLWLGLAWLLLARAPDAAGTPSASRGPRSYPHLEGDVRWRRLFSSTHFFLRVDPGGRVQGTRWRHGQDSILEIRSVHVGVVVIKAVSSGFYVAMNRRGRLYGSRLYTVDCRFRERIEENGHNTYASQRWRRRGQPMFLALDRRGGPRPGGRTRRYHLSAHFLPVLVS
ALR H2O2 inh – blocks human ALR sulfhydryl oxidase activity; P55789; purified ALR, DTT oxidation, H2O2 HRP-luminol luminescence; inhibition, % (no concentration beside the values); 290,000 compounds, 3.8% hits; AID 485317;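 active = mean and each replicate at 75% or more; inconclusive = only one of the two met; inactive = neither met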;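 note: stock transfer was 7.5 nL into about 7.5 µL; 0% = neutral wells and 100% = wells with inactivated enzyme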
Target sequence (P55789 whole entry, looked up): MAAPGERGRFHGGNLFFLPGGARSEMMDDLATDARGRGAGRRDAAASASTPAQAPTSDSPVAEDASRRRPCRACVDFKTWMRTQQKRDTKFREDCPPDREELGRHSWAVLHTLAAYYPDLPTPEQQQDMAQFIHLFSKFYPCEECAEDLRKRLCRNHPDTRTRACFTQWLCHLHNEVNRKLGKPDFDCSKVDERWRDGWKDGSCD
Calb FLC – affects C. albicans growth with fluconazole; C. albicans CaCi-2 (fluconazole-resistant clinical isolate) + fluconazole, Alamar Blue growth, 48 h; growth inhibition, % (no concentration beside the values); 300,000 compounds, 0.57% hits; AID 1979;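 active = most replicates above 75%; inconclusive = exactly half above 75%; inactive = most below 75%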;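 note: all wells also contain fluconazole at 8 µg/ml as a sub-toxic cotreatment; 0% = median of DMSO wells and 100% = median of geldanamycin control wells; wells of about 8 µL received 7.5 nL stock; the first replicate is given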
RanGTP-Impb inh – inhibitors of RanGTP-importin-beta interaction, primary screen, biochemical, FRET, CFP-Ran, YFP-importin-beta, homogeneous. 300,000 compounds, 1.1% hits. inhibition, % (concentration not given with the values). cell-free CFP-Ran/YFP-importin-beta FRET ratio. AID 2216;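 active = most replicates above 15%; inconclusive = exactly half above 15%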;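 note: 0% = DMSO wells and 100% = Ran loaded with GDP instead of GTP; wells of about 40 µL received 100 nL stock; the first replicate is given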
Beta cell apopt – blocks beta cell apoptosis | INS-1E cytokine-induced death, ATP luminescence, 48 h; percent of positive-control rescue, neutral wells zero | 300,000 compounds, 0.8% hits | AID 435005 | protection from apoptosis, % (concentration not given with the values);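 active = all replicates at 75% or more, or half of them and the mean; inconclusive = half reach 75% but not the mean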;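 note: 0% = cytokine-treated negative control wells and 100% = positive control rescue; higher means more ATP so stronger rescue from cytokine killing; wells of about 40 µL received 100 nL stock; the first replicate is given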
Ecoli rRNA inh OD600 – second read-out of Ecoli rRNA inh, no call of its own (marks repeat the call); OD600 change, %; measured here: OD600 growth;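 optical density of the mix in the first replicate; 0 = DMSO median and -100 = no signal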
Ecoli rRNA inh RFP – second read-out of Ecoli rRNA inh, no call of its own (marks repeat the call); RFP signal change, %; measured here: RFP humanized mutant strains;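 first replicate; 0 = DMSO median and -100 = no signal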
An asterisk follows results filed as active; i = inactive; ? = inconclusive; · = no result given. A portion of the library; rates above refer to the full screens.

SMILES | Ecoli rRNA inh | Ecoli rRNA inh OD600 | Ecoli rRNA inh RFP | AF4-AF9 inh | T cruzi inh | FGF22 binding | ALR H2O2 inh | Calb FLC | RanGTP-Impb inh | Beta cell apopt
CCOc1ccc(OCC)c(NC(=O)CSCC(=O)O)c1 | · | · | · | · | -19.4 | · | -15.7 | -2.5 | -0.4 | 3.1
O=C(N/N=C/c1cccc(F)c1)c1c(O)c2ccccc2[nH]c1=O | · | · | · | · | 2.7 | · | -2.9 | 23.0 | 1.1 | 100.7*
Cc1cccc(/C=C2/SC(=O)N(Cc3ccccc3)C2=O)n1 | 9.4 | 6.8 | 0.2 | -35.9 | 14.1 | i | 0.7 | 2.5 | -5.6 | 2.7
O=C(CCCn1cc([N+](=O)[O-])cn1)N1CCCCC1 | 3.8 | -9.3 | -5.4 | -4.2 | -7.1 | i | -7.0 | 12.0 | 7.9 | -2.5
O=C1c2ccccc2C(=O)N1c1ccc(S(=O)(=O)N2CCN(c3ccccc3)CC2)cc1 | · | · | · | · | -9.7 | · | -2.1 | 6.7 | -3.5 | -5.0
CCN(CC(=O)Nc1c(F)cccc1F)C(=O)c1cc(-c2cccs2)nn1-c1ccccc1 | -0.5 | 1.0 | 0.1 | -26.6 | 11.3 | i | 0.9 | -1.9 | -4.1 | -2.0
CN(Cc1ccccc1)C(=O)COC(=O)CCN1C(=O)C2CC=CCC2C1=O (centres undefined) | 1.2 | 5.0 | -2.4 | -0.4 | · | i | -4.6 | · | · | -4.1
Cc1cccc2cc(COC(=O)c3cccnc3)c(=O)[nH]c12 | · | · | · | · | -12.8 | · | -1.2 | -4.3 | 1.2 | -1.1
Cc1cccc2cc(C(c3nnnn3CC3CCCO3)N3CCCc4ccccc43)c(=O)[nH]c12 (centres undefined) | · | · | · | · | 25.8 | · | -12.7 | ? | -0.7 | 0.9
O=C(CN1C(=O)c2ccccc2C1=O)Nc1ccccc1F | · | · | · | · | -4.5 | · | -10.9 | -6.9 | 4.1 | ·
COc1ccc(CNC(=O)/C=C/c2cc3c(cc2Br)OCO3)cc1 | · | · | · | · | -3.6 | · | 9.5 | -7.1 | -2.9 | 2.3
COCCN(C(=O)CCC(=O)Nc1cccnc1)C(C(=O)NC1CCCCC1)c1ccccc1 (centres undefined) | · | · | · | · | 3.4 | · | 0.2 | 25.8 | 2.8 | -1.1
Cc1occc1-c1nnc(SCC(=O)Nc2ccc(F)cc2)n1C | 7.2 | 8.8 | -0.5 | -0.1 | -26.6 | i | -2.1 | 2.4 | -0.9 | -0.2
COc1cc(Br)ccc1NC(=O)c1ccccc1-c1ccccc1C(=O)O | -31.8 | -10.2 | 1.8 | -8.2 | -14.2 | i | 9.0 | -3.5 | 2.1 | ·
COc1ccc(CCN(Cc2cccs2)S(=O)(=O)c2ccc(S(=O)(=O)N3CCCCCC3)cc2)cc1OC | -4.8 | 21.2 | 3.1 | 2.4 | 10.6 | i | · | -11.6 | 0.7 | 0.1
COc1ccc(OCC(=O)Nc2ccccc2N2CCN(C)CC2)cc1 | 2.0 | 7.4 | -1.0 | 1.0 | 6.8 | i | -5.1 | 2.2 | 1.6 | -2.7
O=C(Nc1ccc(-c2cccc(F)c2)cc1)C1CCCN(Cc2ccccn2)C1 (centres undefined) | -56.5 | -80.6 | -18.2 | 2.2 | 8.8 | i | -18.5 | 1.0 | -3.4 | -6.9
COC(=O)c1ccc(NC(=O)C2CCCN2S(=O)(=O)c2ccc(F)cc2)cc1 (centres undefined) | · | · | · | · | 6.2 | · | -12.1 | -4.6 | 0.6 | -0.8
CC(=O)N1CCN(S(=O)(=O)c2cccc(C(=O)Nc3ccccc3N3CCCC3)c2)CC1 | 8.3 | 8.2 | 6.5 | -0.2 | -2.3 | i | 97.4* | 8.1 | 3.2 | ·
COC(=O)Cn1ncc(N2C3CC(CC(C)(C)C3)C2C)c(Cl)c1=O (centres undefined) | · | · | · | · | 5.5 | · | -1.8 | 20.3 | 0.9 | 4.3
CCOc1[nH]n(-c2ccc(Cl)cc2)c(=O)c1C=Nc1ccc(OC)cc1 | · | · | · | · | -6.9 | · | -14.3 | -11.6 | -2.2 | 1.1
COc1ccc(C)cc1NC(=O)c1ccccc1N(C)S(=O)(=O)c1ccccc1 | -18.3 | -20.2 | -2.0 | -1.0 | 9.7 | i | -1.3 | 23.5 | ? | 5.5
CCCN(CCC)S(=O)(=O)c1ccc(C(=O)Nc2ccc(S(=O)(=O)Nc3nnc(CC)s3)cc2)cc1 | -37.4 | -38.4 | 1.5 | -5.3 | -1.2 | i | 51.5 | -16.0 | 1.3 | 4.4
Cc1ccnc2nc(C(=O)OCC(=O)Nc3ccccc3C(C)(C)C)nn12 | 12.9 | 11.2 | 1.2 | -0.9 | -5.7 | i | -2.7 | -2.6 | · | -7.8
CCCCn1c(=O)[nH]c(=O)c2c1nc(COC(=O)c1c(C)noc1C)n2CCC | · | · | · | · | 9.0 | · | -7.6 | -0.4 | 3.9 | 2.7
Cc1cc(C)n(C(=O)c2ccccc2[N+](=O)[O-])n1 | · | · | · | -1.1 | -4.2 | i | -6.0 | -0.9 | 0.6 | 3.2
Cc1ccc2c(c1)C(c1ccncc1)=NNC(c1ccccc1)=N2 | 16.5 | 17.9 | 1.6 | -0.5 | 12.6 | i | 1.6 | -10.1 | 0.4 | -0.5
CCC(=O)Nc1nonc1-c1nc2ccccc2n1N(C(=O)CC)C(=O)CC | · | · | · | · | -11.8 | · | 34.3 | -4.3 | 0.7 | 1.7
COc1cccc2oc3cc(C#CC4(O)CCCCC4)ccc3c(=O)c12 | -23.2 | -33.1 | 8.9 | 0.7 | 48.6 | i | -5.7 | -6.7 | 2.4 | -0.3
Cn1c(SCC(=O)N/N=C/C=C/c2ccccc2[N+](=O)[O-])nc2ccccc21 | 14.7 | 10.0 | -2.4 | 1.0 | 0.7 | i | -3.3 | -0.3 | -2.6 | 0.3
CC(C)CNC(=O)c1cccc(NC(=O)COc2ccc([N+](=O)[O-])cc2)c1 | -1.7 | 9.2 | -1.4 | -3.0 | -2.7 | i | -0.7 | -13.6 | 0.6 | -2.3
COc1cccc(NC(=O)Cc2nnc(SCC(=O)NC3=NCCS3)n2C)c1 | -0.1 | 7.0 | -4.7 | -3.5 | -3.1 | i | 0.6 | -2.2 | 5.3 | -7.7
NNC(=S)NC1CCCCC1 | 7.0 | 5.4 | 2.2 | -5.7 | 9.6 | i | -0.8 | -12.0 | -4.3 | -0.4
Cc1cc(C)c(C#N)c(SCc2cn3ccccc3n2)n1 | · | · | · | -1.7 | -3.2 | i | -8.0 | -3.0 | ? | -5.2
O=C(NCCN1CCCC1)C1(S(=O)(=O)c2ccc(Cl)cc2)CC1 | 11.2 | -5.7 | -4.2 | 6.0 | 16.9 | i | -20.3 | -3.5 | -4.8 | -16.2
O=C(c1ccc(F)cc1)N1CCN(Cc2ccccc2Br)CC1 | · | · | · | · | 4.7 | · | -2.5 | 7.9 | 5.3 | -5.2
CCOC(=O)c1cc2c(=O)n3ccccc3nc2n(CC2CCCO2)c1=NC(=O)/C=C/c1ccccc1 (centres undefined) | -2.0 | -4.3 | -2.6 | -2.3 | 37.0 | · | -9.6 | -2.1 | -4.1 | 16.1
CCC(C(=O)O)n1cnc2scc(-c3ccc(C)c(C)c3)c2c1=O (centres undefined) | -5.0 | -10.0 | -0.3 | 0.9 | -3.2 | i | 92.9* | 2.8 | -5.0 | -1.2
COc1ccccc1C(C(=O)NC1CCCCC1)N(C(=O)c1csnn1)C1CC1 (centres undefined) | 7.0 | 2.6 | 1.4 | -1.2 | -7.7 | i | -1.8 | 0.1 | 1.1 | -1.7
O=C(O)c1cccc(NS(=O)(=O)c2ccc3c(c2)OCCCO3)c1 | 9.2 | -0.2 | -15.9 | -3.3 | 0.7 | i | 0.2 | -3.4 | -0.3 | -3.2
Cc1nn(-c2ccccc2)c(Cl)c1/C=N/Nc1nc2ccccc2n1C | -21.1 | -20.1 | -7.3 | 16.2 | 55.2* | i | 40.7 | 12.8 | -1.2 | 25.5
COC(=O)c1ccc2c(c1)NC(=O)C(N1CCCC1)S2 (centres undefined) | · | · | · | · | -11.3 | · | 3.5 | -4.6 | -2.3 | -3.9
O=C(CN1C(=O)NC2(CCCCC2)C1=O)NNC(=O)C1CC1 | 2.3 | 12.1 | -3.2 | -3.1 | · | i | -3.7 | · | · | 0.4
CCCNC(=O)c1ccc(N2CCC3(CC2)CC(c2cccc(Br)c2)=NO3)c(NC(=O)c2c(Cl)cccc2Cl)c1 | -1.0 | 12.6 | -3.0 | · | 5.9 | i | -1.4 | -2.9 | 3.3 | 4.8
Cc1ccc(NC(=O)COC(=O)CCc2ccc(S(=O)(=O)N3CCOCC3)cc2)c(C)c1 | · | · | · | -0.9 | -7.0 | i | 0.2 | -13.7 | 0.2 | -10.9
CC1CCN(c2ccc3nnc(CCC(=O)N4CCCCC4)n3n2)CC1 | 1.4 | 4.1 | 2.4 | -1.9 | 11.7 | i | -1.6 | -16.8 | 1.6 | -3.4
Cc1ccc(C(=O)N2CCCC2)cc1S(=O)(=O)N1CCCCC1 | 13.1 | -0.7 | 1.5 | 1.4 | -5.1 | i | -5.1 | 2.2 | -0.4 | -4.5
CCn1c(SCC(=O)Nc2ccc(C)cc2)nc2nc3c(cc2c1=O)CCCC3 | 0.2 | 7.7 | -2.3 | 2.4 | 6.3 | i | · | 6.8 | 1.1 | -11.0
O=C(NCc1ccc(Cl)cc1)c1ccc(S(=O)(=O)N2CCCCC2)cc1 | 9.6 | 10.6 | -1.2 | 0.7 | · | i | 1.0 | · | · | -8.5
CCOc1ccc(S(=O)(=O)NCCCN2CCOCC2)cc1 | 17.2 | 3.4 | 1.4 | 2.6 | 8.3 | i | -2.6 | -1.8 | -3.8 | -1.8

Further results:
SMILES | Ecoli rRNA inh | Ecoli rRNA inh OD600 | Ecoli rRNA inh RFP | AF4-AF9 inh | T cruzi inh | FGF22 binding | ALR H2O2 inh | Calb FLC | RanGTP-Impb inh | Beta cell apopt
O=C(NCC1CCCO1)C1CCCN(S(=O)(=O)c2cccc(C(F)(F)F)c2)C1 (centres undefined) | 0.5 | 16.0 | 0.0 | -14.8 | 0.6 | i | 25.1 | -3.0 | 7.2 | 5.2
COc1ccc(N2CCN(C(=O)Cc3ccc(S(=O)(=O)N4CCOCC4)s3)CC2)cc1 | · | · | · | 4.7 | -7.0 | i | 11.5 | -19.5 | 0.7 | -8.8
COc1ccc(C(=O)COC(=O)CSCc2c(C)noc2C)cc1OC | -1.8 | -14.4 | 1.9 | 5.2 | -12.6 | i | 97.7* | 18.1 | 2.3 | -9.0
CCOC(=O)c1ccc(NC(=O)CN2C(=O)C3C4C=CC(C4)C3C2=O)cc1 (centres undefined) | · | · | · | · | 3.1 | · | -0.2 | 5.8 | ? | 0.1
CCn1c(CNC(=O)c2ccccc2F)nnc1SCC(=O)NC1CCCCC1C (centres undefined) | 13.6 | 12.4 | -0.3 | -3.4 | -9.0 | · | 2.1 | 11.1 | -0.8 | -7.1
Cc1c(Cl)cccc1Nc1ncccc1C(=O)OCC(O)CO (centres undefined) | · | · | · | · | -1.1 | · | · | -5.7 | 19.0* | -2.0
